PABP polyA inh – PABP poly(A) RNA binding inhibitors, primary screen, biochemical, fluorescence polarization, uHTS. inhibition, % at 35 µM. hit rate 1% among 290,000. AID 2014, 2009;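 active = 50% or more with normal probe brightness, or confirmed in later tests; inconclusive = above 50% with abnormal brightness, or retests that disagree; inactive = below 50% or failed in later tests; about a fifth of its hits are not listed in these tables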;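 also: calls also rest on retests at 20 µM and on dose response follow-up; controls were probe without protein and protein plus probe with vehicle; some compounds called inactive have numbers as strong as hits; many hits fall short of the cut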
Target sequence (P11940 whole entry, looked up): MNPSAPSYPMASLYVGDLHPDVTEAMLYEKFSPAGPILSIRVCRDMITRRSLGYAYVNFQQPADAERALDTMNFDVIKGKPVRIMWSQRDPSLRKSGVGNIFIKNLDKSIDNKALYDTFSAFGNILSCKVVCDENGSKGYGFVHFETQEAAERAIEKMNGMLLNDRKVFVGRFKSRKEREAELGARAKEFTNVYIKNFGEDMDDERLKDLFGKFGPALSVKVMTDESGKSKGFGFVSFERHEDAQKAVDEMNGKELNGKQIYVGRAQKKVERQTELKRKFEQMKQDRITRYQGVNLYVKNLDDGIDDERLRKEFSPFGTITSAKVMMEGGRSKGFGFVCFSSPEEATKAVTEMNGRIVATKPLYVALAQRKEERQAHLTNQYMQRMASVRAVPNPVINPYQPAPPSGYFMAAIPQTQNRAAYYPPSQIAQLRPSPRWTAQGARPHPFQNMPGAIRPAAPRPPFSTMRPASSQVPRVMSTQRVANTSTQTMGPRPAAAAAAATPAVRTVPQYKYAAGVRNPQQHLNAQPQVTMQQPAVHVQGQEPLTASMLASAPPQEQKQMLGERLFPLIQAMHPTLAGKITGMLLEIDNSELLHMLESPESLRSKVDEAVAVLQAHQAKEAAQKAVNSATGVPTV
CSC inhib – cancer stem cell viability inhibitors, primary screen, luminescence; cancer stem cell-like cells viability; inhibition, % at 7.5 µM; hit rate 1.1% among 300,000;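 active = mean at 75% or more and at least half the replicates too; inconclusive = mean and replicates disagree; tested in HMLE shEcad cells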;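 also: 0% = median of negative and 100% = median of positive control wells; the first replicate is given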
MT1-MMP act inh – blockers of MT1-MMP proenzyme processing, primary screen, HT1080 RFP-PRO-GFP cells, GFP/RFP fluorescence | GFP/RFP ratio fluorescence, overnight; percent of plate control window, DMSO zero | GFP/RFP ratio change, % at 20 µM | hit rate 0.061% among 360,000 | AID 651647, 2012;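 active = GFP/RFP ratio change of at least 30% with cell ATP level not reduced by more than half and red fluorescence within 50% of control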; also: strong numbers were not always called active
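Assay system: HT1080 RFP-PRO-GFP cells. Benchmarks: DMSO vehicle wells and RFP-L50D-GFP reporter cell wells. Times: overnight cell settling, then overnight compound exposure, 37 °C, 5% CO2. Compound: 20 µM single dose, 1% DMSO. Read-out basis: GFP/RFP fluorescence ratio.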
HIV Env fusion – inhibitors of HIV-1 Env-driven cell-cell fusion, primary screen, HeLa-JRFL effector, CEM21 target cells, luciferase; inhibition, % at 12.3 µM; hit rate 1.1% among 360,000; AID 651610, 2012;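 active = mean replicate inhibition score of at least 50 and every replicate individually at or above 50; inconclusive = only one of the two criteria met; inactive = mean below 50 and not all replicates reaching 50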;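 also: 0% = plate neutral controls and 100% = maraviroc near 300 nM; one replicate is shown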
eIF4H inh – human eIF4H binding inhibitors, primary screen, translation initiation inhibitor project, biochemical, uHTS, fluorescence polarization; AID 2012, 2009; hit rate 0.94% among 290,000; inhibition, % at 35 µM; eIF4H fluorescence polarization binding assay; Eukaryotic translation initiation factor 4H (Homo sapiens), Q15056;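 active = 50% or more with normal probe brightness, or confirmed in later tests; inconclusive = above 50% with abnormal brightness, or retests that disagree; inactive = below 50% or failed in later tests; about a fifth of its hits are not listed in these tables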;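 also: calls also rest on retests at 20 µM and on dose response follow-up; 0% = protein and probe with vehicle and 100% = probe without protein; strong numbers were not always called active; many hits fall short of the cut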
Rce1 inh – yeast Rce1p protease inhibitors, primary screen, biochemical, fluorescence, cell-free homogeneous | CAAX prenyl protease 2 (Saccharomyces cerevisiae (strain ATCC 204508 / S288c)), Q03530 | yeast membranes, quenched prenylated peptide cleavage fluorescence | calls only | hit rate 0.27% among 290,000 | AID 2563, 2010;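 active = fall in fluorescence gain of 50% or more versus controls, with final raw signal at or below 3038400; inconclusive = same 50% fall but final raw signal above 3038400; inactive = fall in fluorescence gain under 50%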;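 also: plate controls were neutral control wells for no effect and wells lacking membranes for full effect; tested at 10 µM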
UUG fidelity – modulators of yeast start codon fidelity, primary screen, whole organism, S. cerevisiae, single point, plate reader; activity score, % at 18.7 µM; hit rate 0.13% among 350,000; S. cerevisiae UUG-firefly luciferase reporter, luminescence/redox ratio;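 active = replicate mean at a twofold rise or more, about +100% in these data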;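 also: firefly luciferase made from a UUG start codon reports start codon fidelity; reporter light over untreated wells divided by growth signal over untreated wells; some hits fall short of that in this replicate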
MT1-MMP act inh RFP – second read-out of MT1-MMP act inh, no call of its own (marks repeat the call); RFP signal change, %; measured here: RFP expression control read;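 0 = vehicle wells; hits needed this value within 50% of zero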
The depositor's hits bear a star; i = inactive; ? = inconclusive; . = no result given.

SMILES | PABP polyA inh | CSC inhib | MT1-MMP act inh | MT1-MMP act inh RFP | HIV Env fusion | eIF4H inh | Rce1 inh | UUG fidelity
CCN(CC)c1nc(-c2ccccc2)nc2c1sc(=S)n2CC | -3.1 | -0.1 | 1.8 | -0.2 | -0.9 | 2.4 | i | .
Cc1nccn1CCOc1ccccc1Cl | -0.7 | . | 2.0 | 6.2 | 1.5 | -6.0 | i | -9.1
O=C1c2cccc(OCc3ccc(F)cc3)c2CCN1Cc1ccc(F)cc1 | -13.1 | 34.7 | -12.8 | -26.6 | 50.7 | 10.2 | i | .
CCc1ccc2[nH]c(=O)c(C(c3nnnn3Cc3ccco3)N3CCC(C)CC3)cc2c1 (stereo unspecified) | 12.8 | -11.2 | -19.5 | -7.0 | 13.6 | 14.6 | i | -6.0
Oc1c(CN2CCCCC2)ccc2cccnc12 | . | . | -2.3 | 1.5 | 4.4 | . | . | -35.7
CCOC1=C2[C@H](c3cccc(Cl)c3)N(S(=O)(=O)c3ccc(C)cc3)C[C@H]2n2c(=O)n(-c3ccccc3)c(=O)n2C1 | . | . | -0.6 | 0.0 | -30.4 | . | . | -10.5
CCOc1ccccc1NC(=S)N1C2CCC1CC(NC(=O)NC13CC4CC(CC(C4)C1)C3)C2 (stereo unspecified) | 6.5 | -9.9 | -6.1 | -3.4 | 0.6 | 0.1 | i | -16.8
CCc1ccc(C(O)c2ncc(-c3ccc(Cl)cc3)[nH]2)cc1 (stereo unspecified) | . | . | -0.1 | -7.4 | 7.6 | . | . | -14.9
CCN(C(=O)c1cccc(S(=O)(=O)N(C)C)c1)C12CC3CC(CC(C3)C1)C2 | -4.4 | 52.9 | -7.7 | -12.1 | 1.6 | 0.9 | i | -10.7
O=C(NC(=S)N1CCN(c2ccc(Cl)cc2[N+](=O)[O-])CC1)c1cccs1 | -3.3 | 19.7 | 4.2 | -1.9 | . | 6.1 | i | -4.1
Cc1cccc(NC(=O)Nc2cccc(C)n2)n1 | -0.6 | -11.1 | -9.8 | -12.9 | . | -9.4 | i | -9.0
Cc1ccc(C(=O)C2=C(O)C(=O)N(Cc3ccco3)C2c2ccc(N(C)C)cc2)o1 (stereo unspecified) | 48.8 | 8.1 | 0.5 | 2.1 | -6.1 | 10.1 | i | -18.9
CCOC(=O)c1c2c([nH]c(=S)c1C#N)CCCC2 | 3.6 | 12.0 | 0.1 | 0.4 | -7.9 | 9.5 | i | -38.0
CC1(C)Cc2nc3oc4c(=S)nc[nH]c4c3cc2CO1 | 7.0 | -7.9 | 0.9 | 1.0 | -112.5 | -2.9 | i | .
COc1ccc(C(=O)C2CCCN(C(=O)C3CCOCC3)C2)c(C)c1 (stereo unspecified) | -7.3 | -6.7 | -1.0 | 1.0 | -0.3 | -1.5 | i | .
Cc1ncc2c(n1)NC(=O)NC2 | . | . | 1.4 | 2.0 | -8.9 | . | . | -21.4
COc1ccccc1-n1cc([C@@H]2C[C@H]3CN(c4ccccc4)C(=O)[C@]34CCCN24)cn1 | ? | 15.5 | -29.5 | 2.7 | 58.6* | ? | i | .
Oc1[nH]c2ccccc2c1/C=N/c1nccs1 | -14.0 | 8.1 | -26.1 | -4.3 | . | -10.5 | i | -21.1
COc1ccc(Cl)c2sc(N3CCN(C(C)=O)CC3)nc12 | 11.5 | -6.6 | -0.9 | 1.0 | 0.6 | -5.0 | i | -12.9
CC(=O)Nc1ccc(CN2CCN(C3CCCC3)C(CCO)C2)cc1 (stereo unspecified) | 18.9 | -9.5 | -4.1 | 0.5 | 4.4 | -4.7 | i | 0.1
N#Cc1ccccc1 | . | -7.8 | 1.5 | 1.6 | . | . | . | 4.3
COc1ccccc1COC(=O)CN1C(=O)NC2(CCCCC2C)C1=O (stereo unspecified) | . | . | 1.3 | -1.5 | 14.0 | . | . | -11.2
O=C(CCS(=O)(=O)c1ccccc1)N1CCCc2ccccc21 | -2.7 | -2.6 | 3.0 | 4.0 | -5.3 | -8.1 | i | -0.7
Cc1ccnc(NS(=O)(=O)c2ccc(NC(=O)C(C)(C)C)cc2)n1 | -7.6 | 1.6 | -0.6 | -4.8 | -7.2 | -6.2 | i | .
NC(Cc1ccc2nsnc2c1)C(=O)O (stereo unspecified) | . | 14.2 | -2.9 | 4.8 | . | . | i | -12.8
Clc1cc(Br)ccc1OCCn1ccnc1 | 4.0 | -11.4 | 4.9 | 5.6 | -310.1 | 0.4 | i | -16.5
CCN1C(=O)c2ccccc2Sc2ccc(C(=O)NCCC(C)C)cc21 | 3.3 | -6.2 | -4.6 | -4.3 | 11.8 | 5.3 | i | 0.7
CC1SCC(NC(=O)c2ccccc2Cl)CS1 (stereo unspecified) | 4.1 | -14.9 | -0.7 | 1.4 | -12.7 | -8.8 | i | 0.4
COc1ccc(C(=O)N/C(=C\c2ccc(OC)c(OC)c2)C(=O)N2CCCCC2)cc1 | -6.1 | -3.2 | 1.2 | 3.4 | -9.1 | -9.7 | i | -3.3
Cn1c(SCc2ccccn2)nnc1-c1ccncc1 | 2.4 | -3.5 | -4.6 | 1.1 | -20.2 | -4.1 | i | -18.0
CSc1cccc(NC(=O)CN(C)S(=O)(=O)c2ccc(C)cc2)c1 | -1.4 | 0.3 | -2.3 | -0.1 | . | 4.3 | i | 4.3
CCOc1ccc(NC(=O)CSc2ccc(-c3ccccn3)nn2)cc1 | 0.1 | -6.2 | 9.1 | 6.3 | 4.2 | -9.1 | i | .
CCCCOc1ccc(-c2c(C(=O)Nc3ccccc3)c(C)[nH]c(=S)c2C#N)cc1 | -13.1 | -7.7 | 10.5 | 0.9 | -33.3 | 7.6 | i | .
COc1ccccc1OCCSc1nc2ccc([N+](=O)[O-])cc2s1 | -10.2 | 6.5 | 0.1 | 4.0 | -14.9 | -7.7 | i | .
O=C(Nn1cnc2ccccc2c1=O)c1ccccc1[N+](=O)[O-] | 15.2 | . | 1.4 | 5.2 | -6.0 | -0.4 | i | .
CCN1CCN(C(=O)c2cc3c(=O)oc4ccc(C)cc4c3s2)CC1 | 0.6 | -13.8 | 1.6 | 7.4 | 15.5 | -0.7 | i | 6.4
COc1ccc(S(=O)(=O)N(C)c2ccc(C(=O)N3CCOCC3)cc2)cc1 | -7.5 | -5.8 | 0.1 | -4.6 | . | -13.6 | i | -11.1
C=CCN(CC(=O)NCc1ccc(OC)cc1)C(=O)c1csnn1 | -11.2 | -10.2 | -2.9 | 3.2 | -52.3 | 6.9 | i | -11.3
CC(C)(C)c1cc(C2=CSC3=NCCN23)cc(C(C)(C)C)c1O | 6.5 | -8.0 | 5.2 | 0.5 | . | 2.0 | i | -6.0
Cc1ccc(C(C(=O)NCC2CCCO2)N(C(=O)c2snc(C(N)=O)c2N)c2ccccc2)o1 (stereo unspecified) | -7.2 | -14.7 | -2.0 | -1.3 | 11.3 | -8.0 | . | 4.8
O=C(CCS(=O)(=O)c1ccccc1)Nc1ccc(S(=O)(=O)Nc2ncccn2)cc1 | 8.1 | -21.8 | 1.8 | 8.5 | 8.9 | -5.8 | i | -1.9
Cc1cc(C)c2sc(N(CCCN(C)C)C(=O)COc3ccc(Cl)cc3)nc2c1 | -9.1 | 3.1 | 6.6 | 4.4 | 7.1 | 1.5 | i | 11.4
COCCCN(CCCN)Cc1ccco1 | -1.5 | 10.5 | -4.0 | -0.8 | . | -5.6 | i | .
Cc1ccc(NC(=O)CCc2c[nH]c3ccccc23)nc1 | -9.2 | . | 1.4 | -16.9 | . | -5.2 | i | -11.6
O=S(=O)(O)c1cc(O)c2c(O)c(N=Nc3cc(Cl)ccc3O)c(S(=O)(=O)O)cc2c1 | 75.0* | 64.8 | 77.4* | 41.4* | . | 80.4* | i | 37.9

Marked active in HIV Env fusion, among the entries above:
structure	MT1-MMP act inh	MT1-MMP act inh RFP	HIV Env fusion	Rce1 inh	UUG fidelity
COc1ccccc1-n1cc([C@@H]2C[C@H]3CN(c4ccccc4)C(=O)[C@]34CCCN24)cn1	-29.5	2.7	58.6*	i	.

(next part)
SMILES | PABP polyA inh | CSC inhib | MT1-MMP act inh | MT1-MMP act inh RFP | HIV Env fusion | eIF4H inh | Rce1 inh | UUG fidelity
O=C1CCc2cc(S(=O)(=O)NCc3ccc(Cl)cc3)cc3c2N1CC3 | . | -0.8 | 3.6 | 4.4 | -12.3 | . | i | -12.3
O=C(Oc1ccc2ccc(=O)oc2c1)c1ccc([N+](=O)[O-])cc1 | -9.7 | -0.6 | -2.8 | 1.1 | 5.9 | -1.9 | i | -7.9
CC1CC(C)(C)Nc2ccc(N=O)cc21 (stereo unspecified) | -3.4 | . | -27.3 | -3.3 | 20.2 | -3.5 | i | .
COc1ccc(CCn2c(-c3cc([N+](=O)[O-])cc([N+](=O)[O-])c3)nc3nc4ccccc4nc32)cc1OC | -1.5 | -3.6 | -0.6 | -8.6 | -16.5 | -0.5 | i | .
O=C(NC(=O)c1ccccc1)Nc1ccccc1O | ? | 13.9 | -33.4 | -0.9 | -82.8 | ? | i | -8.3
O=C(NC(=S)NNC(=O)c1cccs1)c1ccccc1 | 0.8 | 3.1 | 5.9 | 7.9 | 6.7 | 10.1 | i | -30.3
COc1ccc(S(=O)(=O)N2CCC(NC(=O)C(Cc3cccc(OC)c3OC)NC(C)=O)CC2)cc1 (stereo unspecified) | -5.3 | -8.5 | -2.5 | -2.7 | 3.8 | 4.6 | i | .
Cc1cc(C)nc(SCc2ccc(C(=O)N/N=C/C3CCCCC3)cc2)n1 | 0.5 | -4.8 | 0.4 | 2.6 | 5.8 | 12.5 | i | .
CN1CCN(C(c2ccc(F)cc2)c2nnnn2Cc2cccs2)CC1 (stereo unspecified) | -1.5 | 2.9 | -2.7 | 0.6 | -76.3 | -18.7 | i | -1.5
CCOC(=O)/C(C#N)=C/c1cn(CCC(=O)O)nc1-c1ccccc1 | -27.1 | -0.3 | 0.4 | 6.2 | -8.1 | -9.1 | i | -9.4
Cc1onc(-c2ccccc2)c1C(=O)Nc1ncc([N+](=O)[O-])s1 | 7.9 | 47.6 | 8.5 | -31.6 | 72.4* | 2.6 | i | -1.9
CC(=O)NC1=C(NC2CCS(=O)(=O)C2)C(=O)c2ccccc2C1=O (stereo unspecified) | 2.6 | -23.2 | -9.1 | 15.1 | 14.9 | 2.7 | i | -1.9
CCN(CC)CCCNc1nc(N)c([N+](=O)[O-])c(N2CCCCCC2)n1 | 8.7 | -5.4 | -2.5 | 0.8 | 3.2 | 5.7 | i | .
Nc1ccc(NC2C[C@@H](C(=O)O)NC2=O)cc1 (stereo partly specified) | 0.1 | . | -4.1 | 1.7 | -6.6 | 4.9 | i | .
O=C(Nc1cccc([N+](=O)[O-])c1)N1CCc2ccccc2C1 | -6.2 | -3.7 | 1.0 | 1.8 | -27.8 | 0.1 | i | -7.5
CCOc1cc(/C=C2\NC(=S)N(c3c(C)n(C)n(-c4ccccc4)c3=O)C2=O)ccc1O | 2.3 | 7.4 | -8.0 | 4.8 | 10.8 | 15.0 | i | -9.2
CC(C)N(O)C(=O)NC(C)(C)C | 4.3 | 11.2 | 1.1 | 2.9 | . | -2.4 | . | -1.9

Screening results from PubChem.
